Bioassay records: PubChem, Broad Institute
rRNA inh HTS – selective bacterial rRNA inhibition in E. coli; E. coli WT GFP vs humanized-ribosome RFP mutants, fluorescence, 24 h; hits give low values; DMSO median 0, no signal -100; GFP signal change (wild-type ribosome), % (no concentration beside the values); 350,000 compounds, 1.6% hits;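 active means significant combined selectivity score with lowered wild-type GFP, culture density cut under 30%, mutant RFP and density less affected; inactive means any of these conditions unmet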; further: one replicate is shown; some compounds called inactive have numbers as strong as hits
MLL AF4-AF9 inh – MLL-AF4/AF9 protein interaction inhibition. P42568. AID 651704. inhibition, % at 10 µM. AlphaScreen, biotin-AF4 peptide binding to FLAG-AF9. 350,000 compounds, 0.47% hits;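 active means every replicate reaching a set inhibition limit, whatever the replicate mean, cut at about 25% in these data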;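 further: 0% = plate neutral control median and 100% = total signal loss; the record names both 10 and 1 µM as test concentration; the first replicate is given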
Target sequence (P42568 whole entry, looked up): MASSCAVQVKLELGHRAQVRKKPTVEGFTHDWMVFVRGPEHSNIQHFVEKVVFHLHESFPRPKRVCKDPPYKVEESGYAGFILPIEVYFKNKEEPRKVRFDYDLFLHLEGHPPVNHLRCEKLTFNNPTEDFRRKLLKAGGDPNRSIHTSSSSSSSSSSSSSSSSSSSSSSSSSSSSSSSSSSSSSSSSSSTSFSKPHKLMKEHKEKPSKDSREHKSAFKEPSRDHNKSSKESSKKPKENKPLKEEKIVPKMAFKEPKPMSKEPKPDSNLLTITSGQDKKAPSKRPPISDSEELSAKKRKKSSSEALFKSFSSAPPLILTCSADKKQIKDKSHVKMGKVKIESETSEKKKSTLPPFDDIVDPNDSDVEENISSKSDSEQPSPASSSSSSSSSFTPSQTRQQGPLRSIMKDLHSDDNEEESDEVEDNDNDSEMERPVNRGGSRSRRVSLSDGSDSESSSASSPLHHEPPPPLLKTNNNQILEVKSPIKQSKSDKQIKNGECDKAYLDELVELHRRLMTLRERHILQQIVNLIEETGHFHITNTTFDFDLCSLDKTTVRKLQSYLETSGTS
rRNA inh HTS OD600 – further read-out of rRNA inh HTS, marked with its call; OD600 change, %; measured here: OD600 growth;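 optical density of the mix in the first replicate; 0 = DMSO median and -100 = no signal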
rRNA inh HTS RFP – also measured in rRNA inh HTS; calls as there; RFP signal change, %; measured here: RFP humanized mutant strains;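 first replicate; 0 = DMSO median and -100 = no signal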
* marks the source's active call; other numbers are inactive results. Not all compounds are listed; rates above refer to the full screens.

Compound	rRNA inh HTS	rRNA inh HTS OD600	rRNA inh HTS RFP	MLL AF4-AF9 inh
C[C@@H]1CN([C@@H](C)CO)C(=O)Cc2cc(NC(=O)Nc3ccc4c(c3)OCO4)ccc2O[C@@H]1CN(C)C(=O)Nc1cccc2ccccc12	-1.5	-7.2	-1.1	3.4
O=C(Nc1ccc(F)cc1)N1CC(=O)N2[C@H](CO)[C@@H](c3ccc(-c4cccc(F)c4)cc3)[C@@H]2C1	-26.4	-52.0	15.7	-11.2
C[C@@H]1CCCCO[C@@H](CN(C)C(=O)c2ccccc2)[C@@H](C)CN([C@H](C)CO)C(=O)c2cc(NS(=O)(=O)c3ccc(Cl)cc3)ccc2O1	1.5	-9.1	-0.1	-2.9
Cc1ccccc1S(=O)(=O)N1C[C@H](O)COC[C@@H]2O[C@@H](CC(=O)NCCc3ccccc3)CC[C@H]21	-0.6	8.3	-1.0	18.4
COc1ccc(S(=O)(=O)N(C)C[C@H]2Oc3c(NC(=O)c4cnccn4)cccc3C(=O)N([C@H](C)CO)C[C@@H]2C)cc1	2.6	1.4	-0.7	-1.2
O=C(NCC1CC1)[C@H]1[C@H](CO)[C@H]2Cn3c(ccc(-c4ccccc4)c3=O)[C@@H]1N2CC1CC1	-1.1	0.9	-3.0	1.3
CO[C@H]1CN(C)C(=O)c2cc(NS(C)(=O)=O)ccc2OC[C@@H](C)N(C(=O)C2CCCC2)C[C@@H]1C	1.8	11.9	0.7	-4.4
C[C@H](CO)N1C[C@H](C)[C@@H](CN(C)C(=O)CCC(F)(F)F)OCCCC[C@H](C)Oc2ccc(NS(=O)(=O)c3ccccc3)cc2C1=O	-8.4	-2.5	-2.6	-1.7
O=C(c1ccccc1F)N1C[C@@H]2[C@H](c3ccccc31)[C@@H](CO)N2C(=O)Nc1ccccc1	1.3	9.7	0.8	-0.5
CC(C)CC#Cc1ccc2c(c1)O[C@@H](CN(C)C(=O)c1cccc(F)c1)[C@H](C)CN([C@@H](C)CO)S2(=O)=O	-4.1	-4.3	-1.6	3.8
CCC(CC)C(=O)N(C)c1c(C)nc2c(OCc3ccc(OC(F)F)cc3)cccn12	-5.5	-41.8	-4.6	0.6
Cc1ccc(S(=O)(=O)N(C)C[C@@H]2OCCCC[C@H](C)Oc3ccc(NS(=O)(=O)c4ccc(F)cc4)cc3C(=O)N([C@H](C)CO)C[C@@H]2C)cc1	-0.1	1.5	-1.8	0.5
Cc1ccc(C)c(S(=O)(=O)N2CCN(C(=O)CNC(=O)c3sc4ccccc4c3Cl)CC2)c1	4.4	13.5	0.1	-7.2
C[C@H](CO)N1C[C@H](C)[C@@H](CN(C)Cc2cccnc2)Oc2ncc(/C=C/c3ccccc3)cc2C1=O	-1.9	2.8	2.8	2.7
N#C[C@@H]1[C@@H](c2ccc(C3=CCCC3)cc2)[C@@H](CO)N1C(=O)C1CCCC1	1.6	0.5	1.3	0.6
COc1ccc(CN(C)C[C@H]2Oc3ccc(NC(=O)Nc4ccc(OC)cc4)cc3CC(=O)N([C@@H](C)CO)C[C@H]2C)cc1	-3.1	-13.8	6.5	5.8
COCC(=O)N(C)C[C@@H]1Oc2ncc(C#Cc3ccc(F)cc3)cc2C(=O)N([C@H](C)CO)C[C@H]1C	0.0	-4.4	-3.4	-1.3
COc1ccc2c3c(n(C)c2c1)[C@H](CO)N(C(=O)Cc1ccccn1)CC31CCN(CC2CC2)CC1	3.0	7.4	0.9	10.0
COc1ccccc1CNC(=O)c1ccc2nc(C)c(N(C)Cc3ccc(NC(C)=O)cc3)n2c1	-5.4	-15.7	-2.4	1.6
C[C@H]1CN([C@@H](C)CO)C(=O)c2cc(Br)cnc2O[C@H]1CN(C)C(=O)C1CCCCC1	4.2	5.0	-5.2	-2.6
Cc1ccccc1S(=O)(=O)N1CC(=O)N2[C@H](CO)[C@@H](c3ccc(C#Cc4ccccc4)cc3)[C@H]2C1	2.0	0.3	1.2	-0.8
COCC(=O)N1[C@@H]2CN(C(=O)Nc3ccccc3F)c3ccccc3[C@@H]2[C@@H]1CO	-18.5*	-5.3*	2.2*	-3.6
CN(C)C(=O)c1ccc(-c2ccc([C@H]3[C@@H](CO)N4CCCCN(S(C)(=O)=O)C[C@@H]34)cc2)cc1	4.1	5.6	-2.1	-5.4
O=C(NCc1ccccn1)[C@@H]1CCCN1C(=O)[C@@H]1CCCN1C(=O)c1cccc(Cl)c1	13.2	-3.7	0.8	4.9
C[C@H](CO)N1C[C@H](C)[C@H](CN(C)C(=O)Nc2ccccc2)OCCCC[C@H](C)Oc2ccc(NC(=O)Cc3ccccc3)cc2C1=O	0.9	3.9	0.8	-0.4

Three of the compounds above, field by field:
C[C@H]1CN([C@@H](C)CO)C(=O)c2cc(Br)cnc2O[C@H]1CN(C)C(=O)C1CCCCC1
- rRNA inh HTS: 4.2
- rRNA inh HTS OD600: 5.0
- rRNA inh HTS RFP: -5.2
- MLL AF4-AF9 inh: -2.6
C[C@H](CO)N1C[C@H](C)[C@@H](CN(C)Cc2cccnc2)Oc2ncc(/C=C/c3ccccc3)cc2C1=O
- rRNA inh HTS: -1.9
- rRNA inh HTS OD600: 2.8
- rRNA inh HTS RFP: 2.8
- MLL AF4-AF9 inh: 2.7
C[C@H](CO)N1C[C@H](C)[C@@H](CN(C)C(=O)CCC(F)(F)F)OCCCC[C@H](C)Oc2ccc(NS(=O)(=O)c3ccccc3)cc2C1=O
- rRNA inh HTS: -8.4
- rRNA inh HTS OD600: -2.5
- rRNA inh HTS RFP: -2.6
- MLL AF4-AF9 inh: -1.7

Additional entries.
Compound	rRNA inh HTS	rRNA inh HTS OD600	rRNA inh HTS RFP	MLL AF4-AF9 inh
COCc1cn(CC[C@H]2CC[C@H](NC(=O)Nc3ccc(Cl)cc3)[C@H](CO)O2)nn1	2.2	-5.2	-1.4	-0.1
Nc1ncnc2c1ncn2[C@@H]1O[C@H](C(=O)NS(=O)(=O)c2cccs2)[C@@H](O)[C@H]1O	7.6	0.4	-2.7	2.1
CC(C)C(=O)N1CCC1(C)C(=O)Nc1ccc(-n2cncn2)cc1 (configuration not stated)	0.7	7.4	2.1	-2.7
O=C(O)C1=CC[C@@H](c2ccc(Cl)cc2)N(S(=O)(=O)c2ccc(Cl)cc2)[C@H]1c1ccc(Br)cc1	-17.9	-54.2	-0.3	0.3
C[C@@H]1CN([C@@H](C)CO)C(=O)c2cccc(NC(=O)c3nc4ccccc4s3)c2O[C@@H]1CN(C)Cc1ccc(-c2ccccc2)cc1	3.8	4.4	-0.2	2.4
CCS(=O)(=O)Nc1ccc2c(c1)C(=O)N(C)C[C@@H](OC)[C@H](C)CN(C(=O)COC)[C@@H](C)CO2	0.5	0.2	-2.1	-1.6
CNC[C@@H]1Oc2ncc(C#CC3(O)CCCC3)cc2C(=O)N([C@@H](C)CO)C[C@H]1C	4.0	2.6	-0.9	2.5
C[C@@H]1CN([C@@H](C)CO)C(=O)c2cc(NC(=O)NC3CCCCC3)ccc2O[C@@H]1CN(C)Cc1ccc2c(c1)OCO2	2.2	2.3	0.5	-3.5
CC1(C(=O)NS(=O)(=O)c2ccccc2Cl)CCN1C(=O)CC1CC1 (configuration not stated)	17.4	23.2	2.0	1.1
CCCNC(=O)N1C[C@H](O)COC[C@@H]2O[C@H](CC(=O)NCCCN3CCOCC3)CC[C@H]21	7.7	8.7	-5.6	-2.7
C[C@@H]1CCCCO[C@@H](CN(C)C(=O)Cc2ccccc2)[C@@H](C)CN([C@H](C)CO)C(=O)c2cc(NC(=O)CCCCCC(=O)Nc3ccccc3N)ccc2O1	1.4	13.4	0.4	-2.8
CCCOc1ccc(F)cc1-c1cc(C(=O)NCc2cc(OC)cc(OC)c2)[nH]n1	-6.1	-21.2	9.8	1.5
O=C(C[C@@H]1CC[C@H]2[C@@H](COC[C@H](O)CN2S(=O)(=O)c2cccc(F)c2)O1)Nc1ccccc1	-3.2	5.4	4.5	-0.6
C[C@@H]1CN([C@@H](C)CO)S(=O)(=O)c2ccc(C#CC3CCCCC3)cc2O[C@H]1CN(C)C(=O)Cc1ccncc1	-5.0	-38.5	21.3	3.4
O=C(C[C@H]1CC[C@@H]2[C@H](COC[C@@H](O)CN2Cc2ccc3c(c2)OCO3)O1)Nc1ccccc1	-5.6	-14.7	2.3	0.4
COc1cccc(NC(=O)N[C@@H]2CC[C@H](CC(=O)Nc3ccccc3)O[C@@H]2CO)c1	3.7	6.0	2.1	2.1
C[C@@H](NC(=O)C[C@@H]1CC[C@H](NC(=O)Nc2ccc3c(c2)OCO3)[C@@H](CO)O1)c1ccccc1	-1.1	7.8	-0.8	1.5
CCC(=O)NC[C@@H]1[C@H](c2ccc(-c3ccccc3)cc2)[C@@H](CO)N1C(=O)C1CC1	-1.9	5.0	-0.9	0.1
COc1cccc(S(=O)(=O)N(C)C[C@@H]2Oc3cc(C#CCC(C)C)ccc3S(=O)(=O)N([C@H](C)CO)C[C@H]2C)c1	4.4	8.8	-2.5	0.3
C[C@@H]1CN([C@@H](C)CO)C(=O)c2cc(NC(=O)Nc3cccc4ccccc34)ccc2O[C@@H](C)CCCCO[C@@H]1CN(C)CC1CCCCC1	-3.8	3.2	3.9	-12.6
CN1C(=O)c2cc(NC(=O)c3ccc(F)c(F)c3)ccc2OC[C@@H]2O[C@H](CC(=O)N[C@H]3CCN(Cc4ccccc4)C3)CC[C@@H]21	-11.8	-6.7	5.2	8.4
CCC(=O)Nc1ccc2c(c1)C(=O)N(C)[C@H]1CC[C@@H](CC(=O)NCCOC)O[C@H]1CO2	1.7	5.9	-2.1	-3.8
CC(=O)O[C@H]1C[C@@H](n2cnc3c(Cl)ncnc32)[C@@H]2OC(C)(C)O[C@@H]21	1.3	14.9	-4.3	-0.2
C[C@H]1CN([C@@H](C)CO)C(=O)c2cc(-c3cccc(C#N)c3)cnc2O[C@H]1CN(C)C(=O)C1CC1	1.4	7.0	0.4	-2.0
COc1ccc(S(=O)(=O)Nc2cccc3c2O[C@H](CN(C)Cc2ccc(C(=O)Nc4ccccc4N)cc2)[C@H](C)CN([C@@H](C)CO)C3=O)cc1	1.0	4.2	-4.2	4.4
COC(=O)c1ccc2nc(-c3ccc(Cl)cc3)c(Cc3cccc(F)c3)n2c1	-20.4	-19.6	4.3	-4.2
CCCN1[C@@H]2c3ccc(-c4ccc(OC)cc4)c(=O)n3C[C@@H]2[C@@H](CO)[C@@H]1C(=O)N(C)C	1.3	1.2	1.3	0.4
O=C(NCc1ccc(F)cc1F)[C@@H]1CCCN1C(=O)[C@@H]1CCCN1C(=O)c1ccc(Cl)cc1	0.7	2.1	0.0	1.0
COc1ccc(CN(C)C[C@H]2OCCCC[C@@H](C)Oc3ccc(NS(=O)(=O)c4ccc(C)cc4)cc3C(=O)N([C@@H](C)CO)C[C@H]2C)cc1	2.3	-17.6	10.7	10.5
CO[C@H]1CN(C)C(=O)c2cccc(C#N)c2OC[C@@H]2O[C@H](CC[C@H]2OC)CCN(C)C(=O)[C@H]1C	0.7	8.9	-4.6	0.9
CO[C@H](CN(C)C(=O)Nc1ccc(Cl)cc1)[C@@H](C)CN(Cc1ccccc1Cl)[C@@H](C)CO	-4.5	-16.6	1.1	1.7
Cc1ccc(S(=O)(=O)Nc2ccc3c(c2)C(=O)N([C@@H](C)CO)C[C@@H](C)[C@H](CN(C)C(=O)c2ccccc2)OCCCC[C@@H](C)O3)cc1	-22.6*	-11.6*	3.4*	-1.1
C[C@H]1CCCCO[C@@H](CN(C)C(=O)Nc2ccc(F)cc2)[C@@H](C)CN([C@@H](C)CO)C(=O)c2cc(NC(=O)c3ccccc3)ccc2O1	-2.6	-6.2	0.2	5.2
C[C@@H]1CN([C@H](C)CO)C(=O)c2cccc(NS(=O)(=O)c3cn(C)cn3)c2O[C@H]1CN(C)C(=O)Nc1cccc2ccccc12	3.4	17.7	0.3	0.0
C[C@@H]1CN([C@@H](C)CO)C(=O)c2cc(C#C[C@@H](C)O)cnc2O[C@H]1CN(C)CC1CCCCC1	4.4	2.5	1.4	0.3
C[C@H]1CCCCO[C@H](CN(C)C(=O)Cc2ccccc2)[C@@H](C)CN([C@@H](C)CO)C(=O)c2cc(NS(=O)(=O)c3cn(C)cn3)ccc2O1	-0.7	-4.2	0.7	-1.3
CN(C)C(=O)[C@@H]1[C@@H](CO)[C@@H]2Cn3c(ccc(C4=CCCC4)c3=O)[C@H]1N2C(=O)Nc1ccccc1	-0.6	-2.1	-2.0	-2.3
Cc1ccc2ccccc2c1C(O)c1ncc(-c2cccc(C(F)(F)F)c2)[nH]1 (configuration not stated)	-60.7	-77.7	-11.0	-0.4
C[C@H]1CN([C@@H](C)CO)C(=O)Cc2cc(NC(=O)Cc3cn(C)c4ccccc34)ccc2O[C@H]1CN(C)C	2.4	-0.5	-0.3	1.4
